Compound activity as filed in PubChem.
StopGo reporter: lowers the luciferase signal of an FMDV 2A StopGo reporter. human cells with a luciferase reporter of 2A StopGo recoding; control for the full effect not named in the record. Potency, µM (titrated, usually from 57.9 µM), for inactives: at the top dose signal change, negative = less light. hit rate 1.2% among 410,000. AID 1159524; active = well fitted falling curve with a large enough effect; inconclusive = small, poorly fitted or top-dose-only effect; inactive = no such curve, though single readings can be large or run the other way; tested in HEK293T cells; further: on the % scale 0 is the no-effect control and ±100 the full control effect; nearly all actives have a fitted effect of over 45% in size; luciferase light after 4 h
NS1 function inh: inhibitors of influenza NS1 protein function. hit rate 0.4% among 270,000. S. cerevisiae slowed by influenza A NS1, growth recovery by OD600. Potency, µM (titrated, usually from 46.1 µM), for the others: top-dose activity, positive = more growth; further: actives are rising curves; nearly all actives have a fitted effect of over 50% in size
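Compounds were scored for reversing the slow growth caused by influenza A NS1 in S. cerevisiae, measured by optical density at 600 nm. Assay medium contained 2% galactose at pH 6.0; NS1-free yeast of the same strain were the positive control.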
MARV entry inh: inhibitors of Marburg virus binding or cell entry; Marburg virus pseudotyped entry inhibition, cell reporter; control for the full effect not named in the record; about a third of the inactives were read at about 46 µM; Potency, µM (series often up to 37.8 µM), for inactives: at the top dose activity change, negative = inhibition, most hits filed as inhibitors; hit rate 1.8% among 300,000; AID 540276; active = well fitted inhibition curve with a large enough effect; inconclusive = small, poorly fitted or top-dose-only effect, or effect the other way; inactive = flat fitted curve, though single readings scatter; tested in HEK293 cells; about a fifth of its hits are not listed in these tables; further: on the % scale 0 is the no-effect control and ±100 the full control effect; luciferase read-out
Cruzain inh Det: cruzain (T. cruzi) inhibition with detergent | Potency, µM, without a hit: max response, negative = inhibition, most hits filed as inhibitors | AID 1478 | P25779 | purified cruzain, Z-FR-AMC fluorescence, 0.01% Triton | hit rate 0.43% among 200,000; active means well fitted curve in the direction sought with a large enough effect; inconclusive means small, poorly fitted or top-dose-only effect, or another doubt; inactive means no such curve, though single readings can be large; an effect the other way counts as inactive or inconclusive;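 further: plate controls were neutral wells for no effect and buffer without enzyme for full effect; nearly all actives have a fitted effect of over 40% in size; top concentration of the series not given in the record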
Target sequence (P25779 123-467 limits assumed): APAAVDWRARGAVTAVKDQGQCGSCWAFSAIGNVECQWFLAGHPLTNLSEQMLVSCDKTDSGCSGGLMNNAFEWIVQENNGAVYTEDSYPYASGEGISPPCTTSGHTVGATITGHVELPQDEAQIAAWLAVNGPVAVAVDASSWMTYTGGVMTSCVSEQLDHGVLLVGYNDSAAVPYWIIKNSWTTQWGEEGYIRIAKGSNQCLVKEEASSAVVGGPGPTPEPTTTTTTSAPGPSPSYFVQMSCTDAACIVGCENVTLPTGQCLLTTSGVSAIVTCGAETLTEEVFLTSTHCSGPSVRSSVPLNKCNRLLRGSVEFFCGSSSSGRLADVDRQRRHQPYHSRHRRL
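Z-FR-AMC hydrolysis (2 uM substrate) by cruzain (1.5 nM) monitored kinetically at ex 360/em 450 nm after 15 min room-temperature compound exposure; 0.01% Triton X-100, pH 5.5, 5 mM DTT.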
RE007 growth inh: less growth of the S. pombe RE007 Vpr strain. hit rate 0.21% among 360,000. Potency, µM (top dose mostly 92.2 µM), for inactives: top-dose activity change, negative = less growth. S. pombe RE007 Vpr strain, BacTiter-Glo ATP luminescence, 24 h; control for the full effect not named in the record; active = well fitted falling curve with a large enough effect; inconclusive = small, poorly fitted or top-dose-only effect; inactive = no such curve, though single readings can be large or run the other way;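 further: on the % scale 0 is the no-effect control and ±100 the full control effect; nearly all actives have a fitted effect of over 50% in size; the assay follows cell death caused by Vpr and the record does not say whether a fall means rescue or toxicity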
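Fission yeast strain RE007, carrying one chromosomally integrated HIV-1 vpr copy, was seeded at OD 0.01 in PMG+AL medium with 23 nL pinned compound. After 24 h at 30 °C and 99% humidity, viability was read by BacTiter-Glo luminescence.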
Cruzain inh noDet: cruzain (T. cruzi) inhibition without detergent | P25779 | purified cruzain, Z-FR-AMC fluorescence, no detergent | Potency, µM, without a hit: max response, negative = inhibition, usual class: inhibitors | hit rate 2.3% among 200,000; active means well fitted curve in the direction sought with a large enough effect; inconclusive means small, poorly fitted or top-dose-only effect, or another doubt; inactive means no such curve, though single readings can be large; an effect the other way counts as inactive or inconclusive;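 further: plate controls were enzyme without inhibitor for no effect and buffer without enzyme for full effect; nearly all actives have a fitted effect of over 40% in size; top concentration of the series not given in the record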
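Detergent-free condition (0.00005% Triton X-100) in acetate buffer pH 5.5 with DTT. 1.5 nM enzyme and compound were pre-mixed 15 min, then 2 uM Z-FR-AMC substrate added; reaction progress from fluorescence change between first and third reads (60 s).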
Lassa entry inh: inhibitors of Lassa virus binding or cell entry; hit rate 1.2% among 300,000; AID 540256; Potency, µM (series often up to 37.9 µM), without a hit: top-dose activity change, negative = inhibition, most hits filed as inhibitors; Lassa virus pseudotype entry inhibition, cell reporter; control for the full effect not named in the record; active means well fitted inhibition curve with a large enough effect; inconclusive means small, poorly fitted or top-dose-only effect, or effect the other way; inactive means flat fitted curve, though single readings scatter; tested in HEK293 cells; further: on the % scale 0 is the no-effect control and ±100 the full control effect; nearly all actives have a fitted effect of over 50% in size; luciferase read-out
SARS PLpro yeast: inhibitors of SARS-CoV papain-like protease in yeast | S. cerevisiae expressing SARS-CoV PLpro, growth rescue; control for the full effect not named in the record | hit rate 0.19% among 330,000 | AID 485353 | Potency, µM (titrated, usually from 32.9 µM), inactives show at the top dose activity, positive = growth rescue; further: 0% is about no effect; nearly all actives have a fitted effect of over 55% in size; growth read by luminescence after 48 h
* = called active by the depositor; ? = inconclusive; · = not tested or not shown; & = joins results of further samples; [ ] = dose if it differs, or a comment. Unless noted, the call rests on the fitted dose curve; in most records, active means well fitted rising curve with a large enough effect; inconclusive means small, poorly fitted or top-dose-only effect; inactive means no such curve, though single readings can be large or run the other way. Potency means the concentration at half of the fitted maximal effect.

SMILES | StopGo reporter | NS1 function inh | MARV entry inh | Cruzain inh Det | RE007 growth inh | Cruzain inh noDet | Lassa entry inh | SARS PLpro yeast
CCOC(=O)c1c(NC(=O)CN2CCC(C)CC2)sc(C)c1C | ? | · | -11%[46.1 µM] | · | -14% | · | ? | 7%
CC(C)c1ccc(NC(=O)CSc2n[nH]c(=O)n2C2CC2)cc1 | ? | 6% | 3%[46.1 µM] | · | -5% | · | 10%[46.1 µM] | 0%
O=C(CSc1nnnn1-c1ccc(Cl)c(C(=O)O)c1)NC(c1ccccc1)c1ccccc1 | -22% | 9% | 0%[46.1 µM] | · | -12% | · | -23% | 8%
O=c1cc(Cl)[nH]c(=O)n1CCNc1ncc(C(F)(F)F)cc1Cl | 14% | -47% | -11% | -6.6% | -9% | -11% | ? | -18%
O=C(c1cnn2c(C(F)(F)F)cc(-c3ccc(Br)cc3)nc12)N1CCOCC1 | -11% | 2% | -17% | -4.3% | -8% | 0% | 3% | 11%
O=C(Nc1ccc(Cl)cc1)c1ccco1 | 56%[activator] | -21% | ? | · | -14% | · | 20% | -6%
Cc1ccc(/C=c2\sc3nc(-c4cccs4)nn3c2=O)o1 | 8% | 8% | 9% | -4.5% | -14% | -14% | -1% | -4%
CCOC(=O)C1=C(C)Nc2ccccc2N/C1=N\S(=O)(=O)c1ccccc1 | -19% | · | -5% | · | -5% | · | 1% | 0%
N#Cc1ccc2c(c1)NC(=O)C1CCCN21 (stereo not drawn) | -7% | 10% | -29%[46.1 µM] | · | 5% | · | -1% | -1%
O=C(N/N=C1\CC(c2ccccc2)Oc2ccccc21)c1ccccn1 (stereo not drawn) | 0% | · | -26%[46.1 µM] | · | -2% | · | -11% | 0%
COc1ccc(C2C(C(=O)NCc3ccco3)c3ccccc3C(=O)N2C)cc1 (stereo not drawn) | -6% | · | 0%[46.1 µM] | · | 6% | · | · | 4%
O=C(CNC(=O)c1ccc(OC(F)F)cc1)NC1CCCc2ccccc21 (stereo not drawn) | 0% | 7% | · | · | -5% | · | · | -3%
CCC(=O)c1ccc(N2CCN(C(=O)c3ccccc3Br)CC2)c(F)c1 | ? | -2% | ? | · | -2% | · | -1% | -2%
CCc1ccc(-c2cc(C(F)(F)F)n3nc(C(=O)Nc4c(C)nn(Cc5ccccc5Cl)c4C)cc3n2)s1 | 11% | 0% | -21% | -3.3% | -4% | -8% | 24%[14.3 µM] | 0%
Cc1cc(C)c(C)c(S(=O)(=O)N2CCN(CC(=O)NC(=O)NCc3ccccc3)CC2)c1C | ? | 8% | -11%[46.1 µM] | -0.5% | 18% | ? | 2% | 1%
CC1(C)CC(=O)C(C=Nc2ccccc2C(=O)O)=C(O)C1 | · | 0% | 8% | 0.7% | 11% | -9% | 16% | -4%
CC(=O)NO | -19%&-2% | · | · | 3.6% | -4%[18.4 µM] | -9% | · | ·
COc1ccc(-n2c(-c3ccc(Cl)cc3)c[nH]c2=S)cc1 | 0% | ? | · | · | 11% | · | · | 2%
Cc1c(Cc2ccccc2)c(=O)oc2cc(OC(C)C(=O)NCC3CCC(C(=O)O)CC3)c(Cl)cc12 (stereo not drawn) | -24% | 16% | · | · | -14% | · | · | -5%
C=CCN(C)CC/C=C1\c2ccccc2CSc2ccccc21 | -28% | -9% | ? | -2.4% | 4% | -9% | 1% | -20%
Cn1c(=O)c2c(ncn2CC(=O)Nc2cc(Cl)c(Cl)cc2Cl)n(C)c1=O | · | -3% | 5% | ? | · | ? | · | 4%
CN(CCCNC(=O)CCC(=O)N1CCOc2ccc(Cl)cc21)Cc1ccccc1 | -20% | 3% | · | · | -13% | · | · | 1%
CCCCC(=O)Nc1nnc(S(=O)(=O)N(C)Cc2ccccc2)s1 | -2% | · | · | -2.0% | · | 1% | -6%[46.1 µM] | ·
COc1ccccc1CNC(=O)C(Cc1ccccc1)NS(=O)(=O)c1ccc2c(c1)CCN2C(C)=O (stereo not drawn) | 5% | · | ? | -3.5% | · | -16% | -5%[46.1 µM] | ·
CCCCn1c(N)c(N(CCOC)C(=O)c2ccc3c(c2)C(=O)N(c2ccccc2C)C3=O)c(=O)[nH]c1=O | -11% | · | -20% | · | 0% | · | 3% | -5%
CCCCCCn1c(CN2CCN(C)CC2)nc2c1c(=O)n(C)c(=O)n2C | -17% | -5% | · | -2.7% | -12% | -9% | · | 12%
COc1cc(C(=O)O/N=C2\CCCc3c2ccc(OC)c3[N+](=O)[O-])cc(OC)c1OC | ? | 7% | ? | 2.9% | 27% | ? | -8% | -10%
CN(Cc1nc2c(s1)CCCC2)C(=O)CCc1nnc(-c2ccccc2)o1 | 29% | -3% | 15%[46.1 µM] | · | -2% | · | 25% | 1%
Cc1cc(-c2ccc(Cl)s2)n[nH]1 | 52%[activator] | 15% | ? | 3.1% | ? | -4% | 23% | 1%
Nc1nonc1-n1nnc(C(=O)N/N=C\c2ccncc2)c1CN1CCCCC1 | -19% | 6% | · | · | 3% | · | · | 2%
CCc1nc(NC(C)C)c2oc3ccccc3c2n1 | -26% | -35% | 13% | -4.0% | -9% | 10% | 9% | -5%
Cc1ccc2onc(CNC(=O)Nc3ccccc3C#N)c2c1 | 4% | · | · | -1.1% | · | -8% | ? | ·
O=C(C1CCN(S(=O)(=O)c2cccc3cccnc23)CC1)N1CCn2c1nc1ccccc12 | ? | -45% | · | -0.1% | 3% | 6% | · | 6%
Cc1ccc(-c2nc3cnccn3c2Nc2c(C)cccc2C)o1 | ? | -182% | · | -4.1% | ? | -7% | · | -38%
Cc1cc(C(=O)N/N=C\c2ccc(COc3ccc([N+](=O)[O-])cc3)o2)ccc1[N+](=O)[O-] | ? | 7% | -4%[46.1 µM] | 8.5% | -8% | ? | ? | 7%
c1ccc(CCN2CCN(c3ncnc4c3cnn4-c3ccccc3)CC2)cc1 | -28% | -32% | ? | -0.4% | -21% | -15% | 13% | 0%
CN1CCN(C(=O)COc2ccc(S(=O)(=O)N(C)Cc3ccccc3)cc2)CC1 | · | 2% | -5% | 5.0% | -5% | -4% | 0% | 24%[6.58 µM]
CCCCn1c(NCc2ccc3c(c2)OCO3)nc2ccccc21 | 3% | -20% | ? | 5.3% | -7% | 0% | ? | 10%
COc1cccc(CN(C(=O)c2cccc(OC)c2)C2CCS(=O)(=O)C2)c1 (stereo not drawn) | -14% | 5% | -4%[46.1 µM] | · | 1% | · | 27%[46.1 µM] | -1%
Cc1cc(C)n2ncc(C(=O)NCc3ccccc3)c2n1 | 0% | -75% | ? | -0.4% | 8% | 4% | ? | 8%
Cc1cc(Br)ccc1SCC(=O)OCC(=O)Nc1ccccc1C#N | 3% | -7% | 10% | -7.4% | 16% | 2% | 16% | -9%
CC(NC(=O)c1cccnc1)C(c1ccccc1)N1CCN(C)CC1 (stereo not drawn) | 7% | -2% | 15% | 4.6% | 6% | 6% | 0% | 11%
CC(=O)Nc1ccc(NC(=O)CSc2nnc(-c3ccc(NS(C)(=O)=O)cc3)n2C)cc1C | -15% | 8% | · | · | 10% | · | · | 0%
COc1ccc(Cc2nc3ccc(C(=O)N4CCCN(C=O)CC4)cc3o2)cc1 | 7% | 4% | · | · | -1% | · | · | ?
CCCN(C(=O)CCOc1ccc(C(C)(C)C)cc1)c1c(N)n(Cc2ccccc2)c(=O)[nH]c1=O | -19% | · | 12% | · | 12% | · | 10% | 8%
O=C(COC(=O)COc1ccc(Br)cc1)Nc1cccnc1Cl | 4% | -48% | -3% | -2.8% | 7% | 4% | 21% | -19%
O=Cc1cccc(OC(=O)Nc2ccccc2)c1 | 15% | · | ? | · | 9% | · | 2% | ·
c1nc(N2CCOCC2)c2[nH]cnc2n1 | 4% | 12% | -2%&-2% | · | -3% | · | 15% | ·
Cc1nnc(SCCn2c(N3CCN(Cc4ccccc4)CC3)nc3c2c(=O)[nH]c(=O)n3C)s1 | 1% | -5% | ? | -1.0% | 0% | -4% | -16% | 0%
COc1ccc(C2/C=C\CN(C(=O)c3ccccc3)[C@H](Cc3ccccc3)C(=O)N2Cc2ccc(F)cc2)cc1 (stereo partly drawn) | ? | 11% | · | · | -12% | · | · | 0%
O=C(NC1CC1)C1CCN(c2nc3ccccc3s2)CC1 | 14% | -3% | ? | · | -12% | · | -22%[46.1 µM] | 1%
CC1Nc2ccc(C(=O)NC3CCCCC3)cc2NC1=O (stereo not drawn) | 25% | 23% | 27%[46.1 µM] | · | 1% | · | · | -7%
CCNS(=O)(=O)c1c(C)cc(N2CCCC2=O)cc1C | -18% | -11% | 1% | 6.2% | 1% | -6% | -7% | 1%
CCCCN(C)CCCNC(=O)c1cccc(N2CCCC2=O)c1 | 17% | -5% | 5% | 2.4% | 4% | 3% | 11% | -2%
O=C(COC(=O)C1CCCN1C(=O)C12CC3CC(CC(C3)C1)C2)c1ccc(Br)cc1 (stereo not drawn) | -30% | -1% | -6%[46.1 µM] | -1.2% | -6% | -26% | -2% | 6%
OC[C@@H]1[C@@H](c2ccc(F)cc2)C(c2ccccc2)=NN1c1ccccc1 | -7% | · | · | -2.7% | -20% | -28% | · | -88%
CSc1cccc(CN2CCCC(CNC(=O)c3ccc(F)cc3)C2)c1 (stereo not drawn) | -11% | 4% | · | · | 12% | · | · | 1%
CCOC(=O)c1c(S(=O)(=O)N2CCCC(C(=O)Nc3ccc(OCC)cc3)C2)c(C)n(C)c1C (stereo not drawn) | -7% | · | · | 1.8% | · | -8% | 22%[46.1 µM] | ·
CC1(C)NC(=O)N(CC(O)COc2ccccc2-c2ccccc2)C1=O (stereo not drawn) | ? | -8% | -4%[46.1 µM] | -1.8% | 45% | 24% | ? | 1%
COc1cc(C2C=C(C34CC5CC(CC(C5)C3)C4)NC(=S)N2)cc(OC)c1OC (stereo not drawn) | -2% | 7% | ? | 1.2% | -13% | ? | ? | 12%
